Screening data (PubChem BioAssay)
V. cholerae motility: Vibrio cholerae motility inhibitors, OD read-out (AID 588778); Vibrio cholerae motility, OD read-out; higher % means a stronger effect; test concentration not given here; primary cut-off and reference of the scale not given here; strong numbers were not always called active; inhibition, %, or IC50 in µg/mL where a hit was titrated; 10,000 tested, under 10 active; in the data active = confirmed in a dose series; inconclusive = primary hit not retested
V. cholerae motility viability: further read-out of V. cholerae motility, marked with its call; inhibition, %; measured here: bacterial viability at 10 ug/mL;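 higher means fewer living bacteria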
* marks the source's active call; other numbers are inactive results; ? = inconclusive; . = no result given. This is a subset. The share of hits here may be higher or lower than overall.

1	COc1cccc(OC)c1C(=O)NC(=S)Nc1ccc(Br)cc1F
2	CN(C)CCC#CC(O)(c1ccccc1)C1CCCCC1 (centres undefined)
3	O=C1CCCC2=C1Sc1ccc(Cl)cc1N2
4	CCCCC(=O)NC(=S)Nc1cccc(C(=O)O)c1C
5	CC(C)OC(=O)CC1C(=O)NCCN1C(=S)NC(=O)c1cccs1 (centres undefined)
6	Clc1ccc(OCCN2CCN(c3ncnc4scc(-c5cccs5)c34)CC2)cc1
7	Cc1nc(/N=C(\N)Nc2cccc(Cl)c2)[nH]c(=O)c1C
8	CSc1nnc(-c2ccccc2Cl)n1N
compound no.	1	2	3	4	5	6	7	8
V. cholerae motility	-8%	20%	?	-13%	-7%	-9%	-3%	7%
V. cholerae motility viability	-3	6	.	-2	-5	1	-4	15

Of the compounds above, these have four or more nitrogen atoms:
6	Clc1ccc(OCCN2CCN(c3ncnc4scc(-c5cccs5)c34)CC2)cc1
7	Cc1nc(/N=C(\N)Nc2cccc(Cl)c2)[nH]c(=O)c1C
8	CSc1nnc(-c2ccccc2Cl)n1N
compound no.	6	7	8
V. cholerae motility	-9%	-3%	7%
V. cholerae motility viability	1	-4	15

(further entries)
9	Cc1ccc(SCC(=O)NN2C(=O)c3ccccc3C2=O)cc1
10	O=C(Nc1ccco1)c1scc(-c2ccccc2)c1C(=O)Nc1ccc(Cl)cc1
11	OC(Cn1ccc2ccccc21)Cn1cnc2ccccc21 (centres undefined)
12	Cc1ccc(C2=NN=C(NC(=O)CSc3nc4ccccc4s3)SC2)cc1
13	CCOC(=O)C(C)C1c2cc(Br)ccc2OC(=O)C1C(=O)NCc1ccccc1 (centres undefined)
14	N/C(=N\OC(=O)NC1CCCCC1)c1ccc(Cl)cc1
15	COc1c(F)c(F)c(C(=O)Nc2ccc(NC(=O)c3cc4ccccc4o3)c(C)c2)c(F)c1F
16	COC(=O)c1ccccc1NC(=O)NCc1cccs1
compound no.	9	10	11	12	13	14	15	16
V. cholerae motility	3%	-19%	22%	7%	12%	16%	-19%	17%
V. cholerae motility viability	-1	-7	15	-1	5	5	-4	7

17	CC1(C(=O)NCCCn2ccnc2)CC1(Cl)Cl (centres undefined)
18	O=C(CCc1nc(-c2ccc(Cl)cc2)no1)OCc1ccc(Br)cc1
19	CCOC(=O)c1sc(N2CCc3ccccc32)nc1C
20	COC(=O)c1sccc1NC(=O)c1cc(C)on1
21	O=C(Nc1ccc(F)c(Cl)c1)Nc1ccc(Br)cn1
22	O=C(c1ccccc1Br)c1cc2c(cc1[N+](=O)[O-])OCCO2
23	Cc1ccc(NC(=O)C2(C)CC2(Cl)Cl)nc1 (centres undefined)
24	CCOc1ccc(NC(=O)C2CCC(N3C(=O)C4C5CCC(C5)C4C3=O)CC2)cc1 (centres undefined)
compound no.	17	18	19	20	21	22	23	24
V. cholerae motility	0%	-3%	8%	8%	-2%	9%	14%	-3%
V. cholerae motility viability	0	-8	0	2	-2	-1	-1	-3

25	COC(=O)C1NC(c2ccc(F)cc2)(c2ccc(F)cc2)C2C(=O)N(Cc3ccc(Cl)cc3)C(=O)C12 (centres undefined)
26	CCN(CC)c1ccc(C(=O)NNC(=O)Nc2ccc(F)cc2F)cc1
27	O=C(CC1SCCNC1=O)Nc1cc(Cl)cc(Cl)c1 (centres undefined)
28	COc1cc(C#N)cc(I)c1OC(=O)c1ccccc1C
29	CCSc1ccccc1C(=O)Nc1cc(C(=O)OC)cc(C(=O)OC)c1
30	Cc1ccc2nc3c(cc(C#N)c(=N)n3Cc3cccnc3)c(=O)n2c1
31	O=C(NCc1cccnc1)c1ccc(-n2nc(C(F)(F)F)c3c2CCCC3)cc1
32	Cc1cc(C(=O)NC(C)C2CC2)c(Cl)cc1Cl (centres undefined)
compound no.	25	26	27	28	29	30	31	32
V. cholerae motility	-2%	17%	-9%	-6%	-2%	7%	17%	1%
V. cholerae motility viability	-2	2	-7	-5	12	-2	12	-6

33	COc1ccc(CCNC(=S)N2CCN(c3cccc(C(F)(F)F)c3)CC2)cc1OC
34	O=C1CC(N2CCC(c3nc4ccccc4o3)CC2)C(=O)N1c1ccc(Cl)c(C(F)(F)F)c1 (centres undefined)
35	NS(=O)(=O)c1ccc(Nc2ncccc2[N+](=O)[O-])cc1
36	CCOC(=O)c1ccc(NC(=S)NCCn2cc(Br)cn2)cc1
37	CNC(=O)CN(C#N)c1nc(N(C)C)nc(N(C)C)n1
38	Cn1nc([N+](=O)[O-])nc1Sc1n[nH]c(-c2ccccc2)n1
39	Cc1cc(NS(=O)(=O)c2ccc(NC(=O)C(C)Oc3ccc(F)cc3)cc2)nc(C)n1 (centres undefined)
40	CSc1nsc(SCC(=O)Nc2cc(C)on2)n1
compound no.	33	34	35	36	37	38	39	40
V. cholerae motility	-14%	-1%	-19%	-17%	6%	-5%	4%	-1%
V. cholerae motility viability	0	5	27	-15	-1	2	1	-7

41	Cc1cc(Br)c(NC(=O)CSc2nnc(N)s2)cc1C
42	O=C(CCSc1ccc(Cl)cc1)N1CCC(Cc2ccccc2)CC1
43	COc1ccccc1OCC(=O)N1CC2(C)CC1CC(C)(C)C2 (centres undefined)
44	Cc1ccc(/C=C2\SC(=S)N(CCCC(=O)Nc3cccnc3)C2=O)cc1
45	Nc1ncc(Cc2ccc(Cl)c(Cl)c2)s1
46	O=C(Nc1ccccc1)Nc1ccc(S(=O)(=O)Nc2ccc(F)cc2)cc1
47	Cc1cc(NC(=O)CSc2nc(-c3ccccc3)cs2)no1
48	CCN(CCC(=O)Nc1ccc(F)c(F)c1)Cc1ccccc1
compound no.	41	42	43	44	45	46	47	48
V. cholerae motility	-6%	-10%	13%	-4%	30%	74%	-5%	26%
V. cholerae motility viability	-5	-8	4	-2	9	22	-10	1

49	O=C(CCS(=O)(=O)Cc1ccccc1)Nc1ccc(Cl)cn1
50	O=C(O)Cc1ccc(C(F)(F)F)cc1[N+](=O)[O-]
51	COc1ccc(-c2cccc(C(=O)NCCC(=O)O)c2)cc1
52	COc1cc2c(c(OC)c1OC)C(c1ccccc1C(F)(F)F)CC(=O)N2 (centres undefined)
53	O=C(Nc1ccc2c(c1)C(=O)OC2)c1ncn[nH]1
54	Cn1c(CN2CC(c3ccccc3)CC2=O)n[nH]c1=S (centres undefined)
55	CN(C)CCCN(CCCN(C)C)Cc1cccnc1
56	Cc1cc(C)n(C/C=C/Cn2nc(C)cc2C)n1
compound no.	49	50	51	52	53	54	55	56
V. cholerae motility	-1%	29%	-22%	-7%	3%	1%	11%	-9%
V. cholerae motility viability	-3	-2	-7	1	-5	-3	34	-4

Continued, starting with the last four of the part before.
53	O=C(Nc1ccc2c(c1)C(=O)OC2)c1ncn[nH]1
54	Cn1c(CN2CC(c3ccccc3)CC2=O)n[nH]c1=S (centres undefined)
55	CN(C)CCCN(CCCN(C)C)Cc1cccnc1
56	Cc1cc(C)n(C/C=C/Cn2nc(C)cc2C)n1
57	COc1ccc(CCC(=O)NNC(=S)NC2CCCC2)cc1
58	O=S(=O)(NC1CCCCC1N1CCOCC1)c1ccc(Cl)cc1 (centres undefined)
59	Cc1c(C(=O)Nc2ccc(Cl)cc2)cnn1-c1ccccc1
60	CCOC(=O)c1ccc(NC(=S)NC(NC(=O)c2ccccc2Br)C(Cl)(Cl)Cl)cc1 (centres undefined)
61	C=CCNC(=S)N(Cc1ccc(OC)c(OC)c1)C1CCS(=O)(=O)C1 (centres undefined)
62	COc1cc(-c2nc(=S)[nH][nH]2)cc(OC)c1OC
63	CCn1nccc1C(=O)Nc1ccccc1OC
64	CSc1ccccc1NC(=O)c1csc(C)c1
compound no.	53	54	55	56	57	58	59	60	61	62	63	64
V. cholerae motility	3%	1%	11%	-9%	55%	28%	-19%	13%	-7%	-6%	-5%	-5%
V. cholerae motility viability	-5	-3	34	-4	16	-1	-7	2	-2	-4	-3	-4

By substructure: those above containing a nitro group on carbon.
22	O=C(c1ccccc1Br)c1cc2c(cc1[N+](=O)[O-])OCCO2
35	NS(=O)(=O)c1ccc(Nc2ncccc2[N+](=O)[O-])cc1
38	Cn1nc([N+](=O)[O-])nc1Sc1n[nH]c(-c2ccccc2)n1
50	O=C(O)Cc1ccc(C(F)(F)F)cc1[N+](=O)[O-]
compound no.	22	35	38	50
V. cholerae motility	9%	-19%	-5%	29%
V. cholerae motility viability	-1	27	2	-2

Next results.
65	COc1ccc(OC(=O)COc2c(C)ccc(C)c2C)cc1
66	COc1ccccc1-c1c(C)nn2c(-c3ccccc3)cc(C)nc12
67	COC(=O)C1=C(C)NC2=C(C(=O)c3ccccc32)C1c1ccc(OCc2ccc([N+](=O)[O-])cc2)c(Cl)c1 (centres undefined)
68	Cn1nnnc1SCC(=O)NC1CCCC1
69	CCC(SC1=NCCS1)C(=O)Nc1nc2ccccc2s1 (centres undefined)
70	CC(=O)N(CCCc1ccc(C(C)(C)C)cc1)CCCN(C)C
71	CC1(C)C2CCC1(CS(=O)(=O)N(Cc1ccccc1)Cc1ccccc1)C(=O)C2 (centres undefined)
72	CN(CC(O)COc1ccc2ccccc2c1)C1CCCCC1 (centres undefined)
compound no.	65	66	67	68	69	70	71	72
V. cholerae motility	-9%	2%	2%	7%	16%	7%	-5%	37%
V. cholerae motility viability	-4	-4	3	11	-2	22	1	11

3 successive entries out of the list so far, for reference:
70	CC(=O)N(CCCc1ccc(C(C)(C)C)cc1)CCCN(C)C
71	CC1(C)C2CCC1(CS(=O)(=O)N(Cc1ccccc1)Cc1ccccc1)C(=O)C2 (centres undefined)
72	CN(CC(O)COc1ccc2ccccc2c1)C1CCCCC1 (centres undefined)
compound no.	70	71	72
V. cholerae motility	7%	-5%	37%
V. cholerae motility viability	22	1	11

Next section:
73	O=C(CCNc1n[nH]c(=O)[nH]c1=O)N/N=C/c1cccs1
74	Cc1ccc(S(=O)(=O)N(C)CC(=O)Nc2ncc(C(F)(F)F)cc2Cl)cc1
75	CCc1c(C)sc(NC(=O)C(F)(F)C(F)(F)C(F)(F)F)c1C#N
76	COc1ccccc1-n1nnnc1SCC(=O)Nc1ccccn1
77	Cc1cc(Nc2ccc(F)cc2)c2cccc(C)c2n1
78	O=C(CSCc1ccc([N+](=O)[O-])cc1)N1CCN(c2cccc(Cl)c2)CC1
79	O=C(CSc1nnc(-c2ccncc2)s1)NNC(=O)c1cccs1
80	CCOC(=O)c1cnc(SCc2nc(N)nc(Nc3ccc(F)cc3)n2)nc1N
compound no.	73	74	75	76	77	78	79	80
V. cholerae motility	-6%	-5%	3%	15%	26%	-6%	9%	22%
V. cholerae motility viability	3	-5	-3	2	15	-3	2	1

81	Cc1ccc(SCC(=O)Nc2ccc(S(=O)(=O)Nc3cccc(C(F)(F)F)c3)cc2)cc1
82	O=C(O)c1ccc(C23CC4CC(CC(C4)C2)C3)o1
83	COc1cc([N+](=O)[O-])ccc1NC(=O)Nc1cccnc1
84	COc1cc(CNc2ccc(N3CCCC3)cc2)cc(Br)c1OCC(N)=O
85	COCCNC(=S)Nc1ccn(C)n1
86	O=C(CS(=O)(=O)Cc1ccccc1)NCC1CCCO1 (centres undefined)
87	Cn1cc(S(=O)(=O)O)cc1-c1nc2ccccc2n1C
88	CCC(=O)NNC(=O)CSc1ccc2ccccc2n1
compound no.	81	82	83	84	85	86	87	88
V. cholerae motility	22%	18%	-9%	-6%	-5%	2%	-15%	11%
V. cholerae motility viability	13	6	4	5	0	21	-6	3

89	CN1C(=O)N(C)C(=O)C(Cc2cccc(F)c2)(Cc2cccc(F)c2)C1=O
90	CC12CCC(C(=O)N3CCCc4ccccc43)(C(=O)C1=O)C2(C)C (centres undefined)
91	O=C(Nc1cc(Cl)ccc1N1CCOCC1)c1cccnc1
92	C=CCSc1nc(C)c(CC(=C)C)c(=O)[nH]1
93	O=C(CCc1ccccc1)Oc1ccccc1F
94	CCN(CC)CC(c1ccccc1)C(O)c1ccc(OC)cc1 (centres undefined)
95	COc1cc(-c2ccc(NC(=O)C3CCCO3)c(OC)c2)ccc1NC(=O)C1CCCO1 (centres undefined)
96	Cc1cc(Br)c(S(=O)(=O)NC2CC(C)(C)NC(C)(C)C2)cc1C
compound no.	89	90	91	92	93	94	95	96
V. cholerae motility	11%	-9%	-7%	0%	8%	-1%	10%	16%
V. cholerae motility viability	2	-2	-3	8	-2	-3	10	-3

97	O=C(CC(c1ccccc1)c1ccccc1)NNC(=S)Nc1ccc2c(c1)OCO2
98	Cc1cc(C(=O)Nc2cccnc2)sc1-c1ccccc1
99	NC(=O)c1sc2c(c1N)C(c1ccccc1Cl)CC(=O)N2 (centres undefined)
100	Cn1c(CNc2ccc(Br)cc2)nc2ccccc21
101	O=C(Oc1cccc(-c2nnco2)c1)N1CCOCC1
102	Cc1ccc(-c2cc(N)n(-c3ccc(C)cc3)n2)cc1
103	CS(=O)(=O)N1CCN(C(=S)NCC2CCCO2)CC1 (centres undefined)
104	Cc1ccc(NC(=O)Cc2ccc([N+](=O)[O-])cc2)c(Br)c1
compound no.	97	98	99	100	101	102	103	104
V. cholerae motility	-2%	25%	-11%	8%	-6%	-16%	15%	0%
V. cholerae motility viability	-8	9	0	1	-4	-3	2	-3
